E coli growth – E. coli growth inhibition, primary screen, OD600 | 0.21% of 330,000 active | Escherichia coli growth, 23 h; active compounds read low | OD600 absorbance (no concentration beside the values);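 active means OD600 absorbance below the run mean of sample wells minus 3.6 SD, in any replicate, cut at about 0.56 in these data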;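 further: stock transfer was 300 nL into about 60 µL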
Vif A3G – inhibitors of Vif binding to APOBEC3G peptide, primary screen, biochemical, TR-FRET, GST-Vif 1-94, biotin-A3G peptide, dose response retest (AID 1117319) | inhibition, %; hits with a dose series show IC50 in µM | Virion infectivity factor (Human immunodeficiency virus type 1 group M subtype B (isolate … | 0.57% of 260,000 active | TR-FRET GST-Vif / biotin-A3G peptide binding; higher % means a stronger effect; test concentration not given here; strong numbers were not always called active;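 active means above the screen mean plus three standard deviations and confirmed in dose response; inconclusive means results disagree or hit not tested in dose response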;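 further: Vif residues 1-94 fused to GST binding biotinylated APOBEC3G peptide 110-148; 0% = full assay without inhibitor and 100% = GST in place of GST-Vif; retest series ran down from 100 µM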
FGF22 binding – binders of human FGF22 protein, primary screen, FGF22 synaptogenesis inhibitor project, biophysical, thermal shift, single point; Fibroblast growth factor 22 (Homo sapiens), Q9HCT0; calls only at 9.99 µM; 1.5% of 340,000 active; AID 651658, 2012; recombinant FGF22 thermal shift, SYPRO orange fluorescence; percent of sucrose octasulfate shift, DMSO zero;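 active means melting point raised past a set limit in the mean and every replicate; inconclusive means no clear call; three in four hits are not shown here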
Target sequence (Q9HCT0 whole entry, looked up): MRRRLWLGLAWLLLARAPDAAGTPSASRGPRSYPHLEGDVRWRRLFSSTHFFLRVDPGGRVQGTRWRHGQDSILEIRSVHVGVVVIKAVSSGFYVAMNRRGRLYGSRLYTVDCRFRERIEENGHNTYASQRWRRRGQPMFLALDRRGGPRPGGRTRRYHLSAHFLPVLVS
AF4-AF9 inh – inhibitors of AF4 peptide binding to AF9, primary screen, biochemical, AlphaScreen, biotin-AF4 peptide, FLAG-AF9, single point; AID 651704, 2012; 0.47% of 350,000 active; inhibition, % at 10 µM;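 active means every replicate reaching a set inhibition limit, whatever the replicate mean, cut at about 25% in these data; inconclusive means mean inhibition reaches that limit but some replicates miss it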;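 further: 0% = plate neutral control median and 100% = total signal loss; the record names both 10 and 1 µM as test concentration; the first replicate is given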
Ecoli rRNA inh – reduced GFP signal of wild-type E. coli, primary screen, bacterial rRNA inhibitor project, GFP/RFP fluorescence, OD600, single point | E. coli WT GFP vs humanized-ribosome RFP mutants, 24 h; active compounds read low; DMSO median 0, no signal -100 | GFP signal change (wild-type ribosome), % (no concentration beside the values) | 1.6% of 350,000 active;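 active means significant combined selectivity score with lowered wild-type GFP, culture density cut under 30%, mutant RFP and density less affected; inactive means any of these conditions unmet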; further: one replicate is shown; some compounds called inactive have numbers as strong as hits
ALR H2O2 inh – inhibitors of human ALR sulfhydryl oxidase, primary screen, biochemical, H2O2 detection, HRP-luminol luminescence, single point; purified ALR, DTT oxidation; AID 485317, 2010; 3.8% of 290,000 active; inhibition, % (no concentration beside the values);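 active means mean and each replicate at 75% or more; inconclusive means only one of the two met; inactive means neither met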;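 further: stock transfer was 7.5 nL into about 7.5 µL; 0% = neutral wells and 100% = wells with inactivated enzyme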
Target sequence (P55789 whole entry, looked up): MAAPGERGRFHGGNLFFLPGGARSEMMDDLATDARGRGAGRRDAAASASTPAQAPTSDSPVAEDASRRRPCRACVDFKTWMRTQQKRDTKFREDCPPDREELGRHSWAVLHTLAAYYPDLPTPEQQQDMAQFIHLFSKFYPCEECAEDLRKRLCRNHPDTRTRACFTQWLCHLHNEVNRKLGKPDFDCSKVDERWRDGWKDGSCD
HNF4A DNA FP – change in binding of human HNF4A to DNA, primary screen, biochemical, fluorescence polarization, FITC-DNA | Hepatocyte nuclear factor 4-alpha (Homo sapiens), P41235 | 1 h | activity change, % at 10 µM | 0.3% of 360,000 active; in the data active means activity change above about 30%, passing the limit was not always enough;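 further: controls were the assay level and a saturating level of protein; the project sought stronger binding though the title names inhibitors; some compounds called inactive have numbers as strong as hits; positive values seem to mean higher polarization but the record does not say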
Target sequence (P41235 whole entry, looked up): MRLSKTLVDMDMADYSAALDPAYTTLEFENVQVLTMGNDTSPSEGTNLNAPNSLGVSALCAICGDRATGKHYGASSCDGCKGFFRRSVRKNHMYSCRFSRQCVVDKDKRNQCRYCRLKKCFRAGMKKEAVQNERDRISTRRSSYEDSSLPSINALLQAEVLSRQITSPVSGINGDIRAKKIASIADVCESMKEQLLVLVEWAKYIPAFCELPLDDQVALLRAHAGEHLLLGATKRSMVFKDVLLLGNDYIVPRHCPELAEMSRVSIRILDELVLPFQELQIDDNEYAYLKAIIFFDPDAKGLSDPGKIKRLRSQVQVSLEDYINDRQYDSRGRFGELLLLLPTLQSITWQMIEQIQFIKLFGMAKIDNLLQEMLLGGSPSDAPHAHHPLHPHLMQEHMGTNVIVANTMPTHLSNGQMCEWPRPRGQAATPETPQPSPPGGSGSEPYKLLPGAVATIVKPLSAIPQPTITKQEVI
Ecoli rRNA inh OD600 – also measured in Ecoli rRNA inh; calls as there; OD600 change, %; measured here: OD600 growth;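 optical density of the mix in the first replicate; 0 = DMSO median and -100 = no signal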
Ecoli rRNA inh RFP – second read-out of Ecoli rRNA inh, no call of its own (marks repeat the call); RFP signal change, %; measured here: RFP humanized mutant strains;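 first replicate; 0 = DMSO median and -100 = no signal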
An asterisk follows results filed as active; i = inactive; u = inconclusive; x = not tested or not shown. Not all compounds are listed (hit frequency here may not be typical).

Letter code: A = E coli growth; B = Vif A3G; C = FGF22 binding; D = AF4-AF9 inh; E = Ecoli rRNA inh; F = Ecoli rRNA inh OD600; G = Ecoli rRNA inh RFP; H = ALR H2O2 inh; I = HNF4A DNA FP
CC(C)n1ncc2c(C(=O)N3CCN(Cc4ccc(Cl)s4)CC3)cc(C3CC3)nc21
  A = 0.7; B = 3%; C = i; D = 7.5; E = 0; F = -14; G = 3.2; H = -6; I = -3.4
O=C([C@@H]1[C@@H](CO)[C@@H]2Cn3c(ccc(C4=CCCC4)c3=O)[C@@H]2N1Cc1nccs1)N1CCOCC1
  A = x; B = x; C = i; D = -32; E = 2; F = 6; G = 4.2; H = x; I = x
CO[C@@H]1CN(C)C(=O)c2cc(NC(=O)C3CC3)ccc2OC[C@H](C)N(CC2CCCC2)C[C@H]1C
  A = x; B = x; C = i; D = 0.4; E = 3; F = -7; G = 0.2; H = x; I = x
C=CCN1CCN(Cc2cnc(Cl)s2)CC1
  A = 0.63; B = 4%; C = x; D = x; E = x; F = x; G = x; H = 14; I = 0.8
COc1ccc(OC)c(NC(=O)NC2CCCc3ccccc32)c1 (configuration not stated)
  A = 0.69; B = 3%; C = i; D = -3.8; E = 0; F = -3; G = -2.2; H = -1; I = 1.4
O=C(/C=C/c1cccnc1)c1cccc(O)c1
  A = 0.64; B = x; C = i; D = u; E = 5; F = 14; G = -3.2; H = 27; I = -3.8
CCC(C)[C@H](NC(=O)N1CCn2c1nc1ccccc12)C(=O)NCc1ccccc1 (some centres not stated)
  A = 0.67; B = -8%; C = i; D = 1.3; E = -17; F = -29; G = -2.8; H = -21; I = 4.0
Cc1cc(C)c(C#N)c(Sc2nnnn2-c2ccccc2)n1
  A = 0.67; B = -1%; C = i; D = 1.9; E = 4; F = 2; G = -3.4; H = 20; I = 2.5
N#Cc1ccc(-c2ccc3c(c2)[C@@H]2[C@@H](CCN2C(=O)c2ccccc2F)[C@@H](CO)N3)cc1
  A = x; B = x; C = i; D = -2.9; E = -26; F = -15; G = 18; H = x; I = x
O=C(CSc1nc2[nH]c(=O)cc(O)c2s1)Nc1cccc(Br)c1
  A = 0.66; B = -2%; C = i; D = -2.3; E = 3; F = 6; G = -0.1; H = 99*; I = 0.8

Of the compounds above, these have a Cl atom.
Letter code: A = E coli growth; B = Vif A3G; C = FGF22 binding; D = AF4-AF9 inh; E = Ecoli rRNA inh; F = Ecoli rRNA inh OD600; G = Ecoli rRNA inh RFP; H = ALR H2O2 inh; I = HNF4A DNA FP
CC(C)n1ncc2c(C(=O)N3CCN(Cc4ccc(Cl)s4)CC3)cc(C3CC3)nc21
  A = 0.7; B = 3%; C = i; D = 7.5; E = 0; F = -14; G = 3.2; H = -6; I = -3.4
C=CCN1CCN(Cc2cnc(Cl)s2)CC1
  A = 0.63; B = 4%; C = x; D = x; E = x; F = x; G = x; H = 14; I = 0.8

New compounds follow.
Letter code: A = E coli growth; B = Vif A3G; C = FGF22 binding; D = AF4-AF9 inh; E = Ecoli rRNA inh; F = Ecoli rRNA inh OD600; G = Ecoli rRNA inh RFP; H = ALR H2O2 inh; I = HNF4A DNA FP
CCOCCCNC(=O)c1ccc(CN2CCc3ccccc3C2)cc1
  A = x; B = -4%; C = i; D = -2.5; E = 19; F = 25; G = 1.0; H = x; I = -0.8
O=S(=O)(N/N=C/c1ccc2c(c1)OCCO2)c1ccccc1
  A = x; B = u; C = x; D = x; E = x; F = x; G = x; H = 10; I = 1.0
Cc1cc(=O)oc2cc(OCC(=O)N3CCCC3)ccc12
  A = 0.67; B = x; C = i; D = -20; E = 6; F = 7; G = -2.7; H = -4; I = -2.1
C/C(=N\NC(=O)c1ccc(F)cc1)c1ccc(N2CCOCC2)cc1
  A = x; B = -9%; C = i; D = -0.1; E = 19; F = 19; G = -1.2; H = 45; I = 1.1
CC(C)(C)CC(=O)NC(=S)Nc1ccccc1C(F)(F)F
  A = 0.69; B = -2%; C = x; D = x; E = x; F = x; G = x; H = 6; I = -5.1
COC(=O)c1ccc(NC2(C#N)C(=O)Nc3ccccc32)cc1 (configuration not stated)
  A = 0.7; B = u; C = x; D = x; E = x; F = x; G = x; H = x; I = 1.9
Cc1csc(NC(=O)C(F)(F)F)n1
  A = 0.72; B = -4%; C = i; D = -2.6; E = 11; F = 2; G = -9.7; H = -44; I = 9.2
COc1cc(NC(=O)c2cc([N+](=O)[O-])ccc2NC(=O)CNC2CCCCC2)cc(OC)c1
  A = 0.7; B = x; C = i; D = 15; E = -13; F = -6; G = -2.0; H = 5; I = 1.7
COc1ccc2c(c1)CCCN2C(N)=O
  A = 0.62; B = 24%; C = i; D = 1.2; E = 10; F = 3; G = 0.3; H = -10; I = -0.7
O=C(CN1CCN(c2ccccc2F)CC1)c1ccc(O)cc1O
  A = 0.68; B = -4%; C = i; D = 0.2; E = 2; F = 7; G = 1.0; H = 6; I = 8.0
O=C(CSc1cccc[n+]1[O-])N1CCCCCC1
  A = 0.71; B = 3%; C = i; D = -0.5; E = 7; F = -5; G = -1.5; H = -1; I = 1.1
O=C(NCC[C@H]1CC[C@H](NS(=O)(=O)c2cccc(F)c2)[C@H](CO)O1)Nc1cc(F)ccc1F
  A = x; B = x; C = i; D = 6.1; E = -6; F = -12; G = -3.5; H = x; I = x
Cc1ccc(C(=O)O)cc1N1C(=O)c2cccc3cc(Br)cc(c23)C1=O
  A = 0.74; B = -6%; C = x; D = x; E = x; F = x; G = x; H = 0; I = -6.0
CN1C(=O)c2cc(NC(=O)C3CCOCC3)ccc2OC[C@@H]2O[C@H](CC(=O)NCc3ccc4c(c3)OCO4)CC[C@@H]21
  A = x; B = x; C = i; D = -2.5; E = -1; F = 10; G = -1.8; H = x; I = x
COc1ccc(-c2nc(C#N)c(NCCCn3ccnc3)o2)cc1OC
  A = 0.7; B = -6%; C = x; D = x; E = x; F = x; G = x; H = 55; I = -0.1
C[C@H](CO)N1C[C@H](C)[C@@H](CN(C)Cc2ccc(C(F)(F)F)cc2)Oc2ccc(NC(=O)c3ccncc3)cc2CC1=O
  A = x; B = x; C = i; D = 4.3; E = -16; F = -55; G = 24; H = x; I = x
COc1ccc(OC)c(/C=N/c2c(-c3ccc(O)c(OC)c3)nc3ccccn23)c1
  A = x; B = x; C = i; D = 6.7; E = 8; F = 13; G = 0.6; H = u; I = 0.0
N#C[C@@H]1[C@H](c2ccccc2C2=CCCCC2)[C@H](CO)N1C(=O)c1cccc(F)c1
  A = x; B = x; C = i; D = -0.3; E = -11; F = -49; G = 23; H = x; I = x
COc1ccc(Cc2nc3ccc(C(=O)NC(C)C)cc3o2)cc1
  A = x; B = 3%; C = i; D = -1.4; E = 7; F = 8; G = -0.2; H = x; I = 6.4
CN(C)CCCNC(=O)c1c(N)[nH]c(C(=O)c2ccc(Br)cc2)c1-c1ccc(Br)cc1
  A = x; B = x; C = x; D = 7.2; E = 5; F = -15; G = 5.4; H = x; I = x
CCOC(=O)c1sc(NC(=O)C2CSC3(C)CCC(=O)N23)nc1C (configuration not stated)
  A = 0.68; B = -3%; C = i; D = -7.6; E = -1; F = -2; G = -1.7; H = 0; I = 6.0
COCCCNC(=O)c1ccc(CNS(=O)(=O)c2ccc(NC(C)=O)cc2)cc1
  A = 0.76; B = 1%; C = x; D = x; E = x; F = x; G = x; H = 1; I = -0.9
Cc1ccc(C(=O)O)cc1Nc1ncnc2sc3c(c12)CCC3
  A = 0.7; B = 9%; C = i; D = -1.5; E = 2; F = -7; G = -2.5; H = -3; I = -0.2
CN(C)C(=O)CSc1cnc2ccccc2n1
  A = 0.69; B = 9%; C = i; D = 3.9; E = -3; F = 1; G = -1.1; H = -21; I = -0.7
CNC[C@H]1Oc2c(NS(=O)(=O)c3cn(C)cn3)cccc2C(=O)N([C@H](C)CO)C[C@H]1C
  A = x; B = x; C = i; D = -3.3; E = 2; F = 8; G = 0.5; H = x; I = x
O=C(/C=C/c1ccc(F)cc1)Nc1ccc(S(=O)(=O)Nc2ncccn2)cc1
  A = 0.65; B = 3%; C = i; D = 0.1; E = 6; F = 3; G = -0.3; H = -3; I = 9.2
O=C(CC(F)(F)F)N1C[C@H]2[C@@H](c3ccccc31)[C@H](CO)N2C(=O)C1CC1
  A = x; B = x; C = i; D = 0.0; E = 6; F = 9; G = 2.7; H = x; I = x
COCCN=C1Sc2nc3ccc(C)cc3cc2CN1Cc1ccco1
  A = 0.66; B = 13%; C = x; D = x; E = x; F = x; G = x; H = 74; I = 2.0
CCOC(=O)CC(C#N)c1cn(C)c2ccccc12 (configuration not stated)
  A = 0.74; B = -5%; C = x; D = x; E = x; F = x; G = x; H = -4; I = 3.8
COc1ccccc1NC(=O)c1ccc(NS(=O)(=O)c2c(C)noc2C)cc1
  A = 0.73; B = -10%; C = x; D = x; E = x; F = x; G = x; H = -8; I = -3.1
CC(C)N1CCc2[nH]c(=S)[nH]c(=O)c2C1
  A = 0.67; B = x; C = x; D = x; E = x; F = x; G = x; H = -4; I = -1.2
O=C(CN1C(=O)NC2(CCCC2)C1=O)Nc1ccc(S(=O)(=O)N2CCOCC2)cc1
  A = x; B = x; C = i; D = -2.9; E = 26; F = 25; G = 2.3; H = 1; I = -7.1
CN(C(=O)CCN1C(=O)c2ccccc2C1=O)c1ccccc1
  A = 0.68; B = -2%; C = i; D = -2.0; E = -9; F = -9; G = -4.9; H = -19; I = 0.0
Cc1ccc(S(=O)(=O)N[C@H]2C=C[C@H](CC(=O)N3CCC(Cc4ccccc4)CC3)O[C@H]2CO)cc1
  A = x; B = x; C = i; D = -4.4; E = 1; F = -23; G = 16; H = x; I = x
Cc1ccc(O)c(CNc2nc3ccccc3[nH]2)c1
  A = 0.62; B = -2%; C = i; D = 5.5; E = -6; F = -10; G = -8.8; H = x; I = 5.5
CC(O)C(=O)N/N=C/c1ccccc1C(=O)O (configuration not stated)
  A = x; B = x; C = i; D = -2.2; E = 12; F = 13; G = 1.6; H = -24; I = 2.0
CC(=O)Nc1ccc(S(=O)(=O)Nc2ccc(C(=O)NCC(=O)O)cc2)cc1
  A = 0.71; B = 20%; C = i; D = -34; E = 0; F = -4; G = -8.7; H = -9; I = -3.6
COc1ccc(/C=N/NC(=O)c2cccc(Br)c2)cc1CN1CCOCC1
  A = x; B = 5%; C = i; D = 3.3; E = -2; F = -1; G = 1.9; H = -12; I = 1.6
CCNC(=S)Nc1cccc(S(=O)(=O)NC2=NCCC2)c1
  A = 0.7; B = 72%; C = i; D = -1.4; E = 26; F = 21; G = 1.0; H = 0; I = -2.2
CC(C)NC(=O)Nc1ccc2c(c1)C(=O)N([C@@H](C)CO)C[C@H](C)[C@H](CN(C)C(=O)Nc1ccc3c(c1)OCO3)O2
  A = x; B = x; C = i; D = -4.9; E = 1; F = 4; G = 1.2; H = x; I = x
